Assay outcomes deposited in PubChem by several laboratories.
Sa ugtP lethal: growth inhibition of ugtP-null S. aureus, primary screen, RN4220 ugtP deletion, OD600. 16 h; some inactives read as strong as hits. growth inhibition, % (concentration not given with the values). actives 0.54% (n = 330,000);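 active means z-score under -3 and OD600 up to 0.15 on both plates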;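 further: plate controls were untreated wells for no effect and antibiotic for full effect; wells of about 80 µL received 100 nL stock; the first replicate is given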
Sa RN4220 lethal: growth inhibition of S. aureus RN4220, primary screen, OD600; 16 h; inhibition, % (no concentration beside the values); actives 0.33% (n = 330,000); AID 1259311, 2017;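 active means z-score of -3 or lower and OD600 up to 0.18 on both plates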;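 further: plate controls were untreated cells for no effect and reference antibiotic for full effect; stock transfer was 100 nL into about 80 µL; one replicate is shown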
BJeLR viability: MLPCN primary cell-based screen for lethality selective to Ras in HRASV12 cells; inhibition, % (test concentration not listed); actives 0.17% (n = 300,000); BJeLR (HRASV12) viability, CellTiter-Glo ATP luminescence, 48 h; reference of the scale not given here;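 active means replicate mean above 50%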;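 further: 50 nL library stock added to about 25 µL; numbers are from one replicate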
Mtb hypoxia rep: PubChem AID 1159583; M. tuberculosis hypoxia-regulated fluorescent reporter, fluorescence; actives 0.1% (n = 300,000); fluorescence inhibition, % (test concentration not listed);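 active means 35 to 45% if threefold the growth effect, above 45% if 1.5-fold the growth effect; inactive means the rest, general growth blockers included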;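 further: wells of about 50 µL received 100 nL stock; 0% = vehicle wells and 100% = reference inhibitor wells; whole bacteria with a GFP reporter of the hypoxia response; strong numbers were not always called active; many hits fall short of the cut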
Autofluor counter: flagged as autofluorescent in microsphere protease counterscreen | actives 3.1% (n = 360,000) | compound autofluorescence counterscreen, microsphere flow cytometry; stronger effect = higher value | fluorescence intensity (no concentration beside the values) | AID 624483;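 active means at least 3 SD above the mean of all compounds, about 16000 in these data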;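 further: 100 nL of 1 mM stock went into each well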
PrP UTR inh: inhibition of PrP 5' UTR reporter expression; cell-based PrP 5' UTR mRNA reporter, plate reader; actives 0.35% (n = 340,000); AID 488862, 2010; inhibition, % (no concentration beside the values);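 active means every replicate at 50% or more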;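 further: 0 = median of the neutral control wells; tested in H4 reporter cells; numbers are from one replicate; inactives centre near -14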
Mtb hypoxia rep growth: recorded beside Mtb hypoxia rep, whose call it bears; growth inhibition, %; measured here: M. tuberculosis growth (absorbance);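 0% = vehicle and 100% = reference antibiotic; read after six days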
Starred values were filed as active, the others as inactive. Rows are unselected; any-hit rate near 4%.

Screening COCC(C)NCc1cccc([N+](=O)[O-])c1 (configuration not stated) returned Sa ugtP lethal 4.1, Sa RN4220 lethal 2.3, BJeLR viability -1.2, Mtb hypoxia rep 10.3, Autofluor counter 10550, PrP UTR inh -38.8 and Mtb hypoxia rep growth -4.0.
`O=C(Nc1nnc(C2=COCCO2)o1)c1ccc(S(=O)(=O)N2CCCC2)cc1` gave Sa ugtP lethal -4.4, Sa RN4220 lethal 4.9, BJeLR viability -5.0, Mtb hypoxia rep 12.9, Autofluor counter 2599, PrP UTR inh -17.0 and Mtb hypoxia rep growth 12.9.
For O=C(Nc1cccc(C(=O)N2CCN(c3cccc(Cl)c3)CC2)c1)c1ccccc1 the results were Sa ugtP lethal -9.0, Sa RN4220 lethal -3.1, BJeLR viability -7.4, Mtb hypoxia rep 5.5, Autofluor counter 2543, PrP UTR inh -16.1 and Mtb hypoxia rep growth -0.2.
For O=C(Nc1cnccn1)c1cccs1 the results were Sa ugtP lethal 1.6, Sa RN4220 lethal -0.6, BJeLR viability 0.3, Mtb hypoxia rep 8.3, Autofluor counter 8718 and Mtb hypoxia rep growth 2.3.
O=c1c(Br)ccc(Br)cc1Br was read as Sa ugtP lethal 49.8, Sa RN4220 lethal 20.0, Mtb hypoxia rep 12.0, Autofluor counter 3473, PrP UTR inh -17.9 and Mtb hypoxia rep growth 8.4.
For Cc1ccc(F)cc1NC(=O)CN1CCN(Cc2ccccc2)CC1 the results were Sa ugtP lethal 0.5, Sa RN4220 lethal -0.1, BJeLR viability -0.9, Mtb hypoxia rep -2.6, Autofluor counter 3970, PrP UTR inh -13.0 and Mtb hypoxia rep growth 5.1.
For COc1ccc2c(c1)OC(c1cccc(C(F)(F)F)c1)C(OC(=O)NC1CCCc3ccccc31)C2=O (configuration not stated) the results were Sa ugtP lethal 2.1, Sa RN4220 lethal 6.5, Mtb hypoxia rep -1.9 and Mtb hypoxia rep growth 1.3.
For CCN(CC)c1ccc(C=Nn2c(C)cc(C)cc2=O)cc1 the results were Sa ugtP lethal -6.2, Sa RN4220 lethal 5.4, Mtb hypoxia rep 3.8 and Mtb hypoxia rep growth 11.3.
For NP(=O)(OCCCCc1ccccc1)Oc1ccccc1Cl (configuration not stated) the results were Sa ugtP lethal -5.3, Sa RN4220 lethal -4.8, BJeLR viability -0.1, Mtb hypoxia rep 5.1, Autofluor counter 3587, PrP UTR inh -4.6 and Mtb hypoxia rep growth 3.3.
Screening O=C1CC(c2ccccc2)CCc2sccc2N1 (configuration not stated) returned Sa ugtP lethal -3.5, Sa RN4220 lethal 2.0, BJeLR viability -9.1, Mtb hypoxia rep 4.3, Autofluor counter 10527, PrP UTR inh -27.7 and Mtb hypoxia rep growth 1.3.
O=C(c1ccc([N+](=O)[O-])cc1Cl)N1CCN(c2ccccn2)CC1 was read as Sa ugtP lethal 2.4, Sa RN4220 lethal 4.7, BJeLR viability -7.9, Mtb hypoxia rep 11.9, Autofluor counter 4842, PrP UTR inh -31.1 and Mtb hypoxia rep growth 11.1.
COc1ccc(Cl)cc1CSc1ncn[nH]1 was read as Sa ugtP lethal 5.2, Sa RN4220 lethal 2.8, BJeLR viability -14.0, Mtb hypoxia rep 7.7, Autofluor counter 4260, PrP UTR inh -1.7 and Mtb hypoxia rep growth 4.5.
Screening O=C(Nc1ccc(COc2ccccc2)cc1)c1cccc([N+](=O)[O-])c1 returned Sa ugtP lethal -10.1, Sa RN4220 lethal -3.1, BJeLR viability 3.5, Mtb hypoxia rep -2.9, Autofluor counter 2257, PrP UTR inh -30.0 and Mtb hypoxia rep growth 6.1.
`CC(C)c1nc(SCC(=O)N2c3ccccc3CC2C)c2ccccc2n1` (configuration not stated) gave Sa ugtP lethal 4.9, Sa RN4220 lethal 0.6, BJeLR viability -0.7, Mtb hypoxia rep 5.2, Autofluor counter 12946, PrP UTR inh -12.7 and Mtb hypoxia rep growth 5.5.
Screening O=S(=O)(Nc1ccc(N2CCOCC2)nn1)c1ccccc1 returned Sa ugtP lethal -4.3, Sa RN4220 lethal -8.4, BJeLR viability -5.2, Mtb hypoxia rep 16.9, Autofluor counter 3198, PrP UTR inh -25.3 and Mtb hypoxia rep growth 10.8.
Screening CCC(C)NC(=O)CSc1n[nH]c(=O)n1CCc1ccccc1 (configuration not stated) returned Sa ugtP lethal -6.0, Sa RN4220 lethal 2.7, BJeLR viability -3.5, Mtb hypoxia rep 13.1, Autofluor counter 4155, PrP UTR inh -17.0 and Mtb hypoxia rep growth -3.8.
Cc1ccc(CCC(=O)Nc2ccc(N(C)C)cc2)o1 was read as BJeLR viability 1.0, Autofluor counter 3428 and PrP UTR inh -16.3.
`C/C(Cc1ccccc1)=N\NC(=O)C1CCCCC1` gave BJeLR viability 2.3, Autofluor counter 8478 and PrP UTR inh -15.8.
Screening COC(=O)c1ccccc1NC(=S)NC(NC(=O)c1ccccc1[N+](=O)[O-])C(Cl)(Cl)Cl (configuration not stated) returned Sa ugtP lethal -47.5, Sa RN4220 lethal 17.6, BJeLR viability -3.8, Mtb hypoxia rep 2.5, Autofluor counter 3593, PrP UTR inh -16.3 and Mtb hypoxia rep growth 4.4.
S=c1[nH]nc(Cc2ccc(Br)cc2)n1N=Cc1ccc(Cl)cc1 was read as Sa ugtP lethal -1.5, Sa RN4220 lethal -3.1, Mtb hypoxia rep 12.3 and Mtb hypoxia rep growth 6.3.
Cc1nc2cc(C(=O)N3CCC4(CC3)OCCO4)ccc2n1-c1cccc(F)c1 was read as Sa ugtP lethal -0.3, Sa RN4220 lethal -0.2, BJeLR viability 6.1, Autofluor counter 6054 and PrP UTR inh -11.4.
`CCCc1nc(N2CCN(S(=O)(=O)c3ccc(Cl)cc3)CC2)c2c(C)c(C)sc2n1` gave Sa ugtP lethal -2.5, Sa RN4220 lethal 5.6, Mtb hypoxia rep 10.8, Autofluor counter 4525, PrP UTR inh 3.4 and Mtb hypoxia rep growth -0.8.
For NS(=O)(=O)c1ccc(-c2ccc(C=NNC(=O)c3ccc([N+](=O)[O-])cc3)o2)cc1 the results were Sa ugtP lethal 0.3, Sa RN4220 lethal 1.1, Mtb hypoxia rep -4.7 and Mtb hypoxia rep growth 0.2.
`O=C(CCCN1C(=O)/C(=C/c2ccccc2)SC1=S)Nc1ccccc1O` gave Sa ugtP lethal -4.8, Sa RN4220 lethal 3.8, BJeLR viability -10.7, Mtb hypoxia rep 17.5, Autofluor counter 2017, PrP UTR inh -2.5 and Mtb hypoxia rep growth 12.8.
Cn1ncc(Cl)c(Oc2ccc(C(C)(C)C)cc2)c1=O was read as Sa ugtP lethal 5.3, Sa RN4220 lethal -1.2, BJeLR viability -21.6, Mtb hypoxia rep 13.6, Autofluor counter 2675, PrP UTR inh -33.7 and Mtb hypoxia rep growth 0.1.
`O=C(CO/N=C/c1ccccc1OC(F)F)NC1CCCCC1` gave BJeLR viability -1.2, Autofluor counter 2300 and PrP UTR inh -15.4.
`Cc1ccc(O)c(NC(=O)c2ccc3c(c2)C(=O)N(Cc2cccnc2)C3=O)c1` gave Sa ugtP lethal 9.7, Sa RN4220 lethal -0.4, BJeLR viability 1.2, Mtb hypoxia rep 1.9, Autofluor counter 4090, PrP UTR inh -8.6 and Mtb hypoxia rep growth -8.3.
Cc1nc(SCCC(=O)O)c2ccccc2n1 was read as Sa ugtP lethal -1.4, Sa RN4220 lethal -2.8, BJeLR viability -0.9, Mtb hypoxia rep 1.5, Autofluor counter 8920, PrP UTR inh 0.9 and Mtb hypoxia rep growth 1.9.
`CC(Cc1cccs1)NC(=O)c1cccs1` (configuration not stated) gave Sa ugtP lethal 12.1, Sa RN4220 lethal 3.8, BJeLR viability -2.3, Autofluor counter 2052 and PrP UTR inh -49.2.
For Cc1ccc(C)c(NC(=O)C2C(c3ccccc3)C2(Cl)Cl)c1 (configuration not stated) the results were Sa ugtP lethal 12.9, Sa RN4220 lethal -0.4, BJeLR viability -9.9, Mtb hypoxia rep 3.6, Autofluor counter 6472, PrP UTR inh -21.8 and Mtb hypoxia rep growth -3.9.
For CCOC(=O)c1c(S(=O)(=O)NCC(=O)Nc2ccccc2OC)c(C)n(C)c1C the results were Sa ugtP lethal 11.4, Sa RN4220 lethal 5.0, BJeLR viability -7.0, Mtb hypoxia rep -0.8, Autofluor counter 4605, PrP UTR inh -11.1 and Mtb hypoxia rep growth 9.9.
COc1ccc(C)cc1-n1c(C)cc(C=O)c1C was read as Sa ugtP lethal 5.7, Sa RN4220 lethal 6.2, BJeLR viability 21.6, Mtb hypoxia rep 8.2, Autofluor counter 4103, PrP UTR inh -15.8 and Mtb hypoxia rep growth 8.9.
Screening O=C(NCc1ccc(Cl)cc1)C1CCCN(C(=O)c2ccc(Cl)cc2)C1 (configuration not stated) returned Sa ugtP lethal 6.9, Sa RN4220 lethal -1.4, Mtb hypoxia rep 10.3, Autofluor counter 8638, PrP UTR inh -11.3 and Mtb hypoxia rep growth 2.0.
Screening COc1cccc(N2C(=O)CN(Cc3ccccc3)C2=S)c1 returned Sa ugtP lethal 2.9, Sa RN4220 lethal 12.4, BJeLR viability -4.8, Mtb hypoxia rep 6.1, Autofluor counter 3972, PrP UTR inh -28.8 and Mtb hypoxia rep growth 1.3.
For Cc1ccc(C)c(NC2=C(Cl)C(=O)OC2OC(=O)c2ccco2)c1 (configuration not stated) the results were Sa ugtP lethal -6.2, Sa RN4220 lethal 4.5, BJeLR viability 2.5, Mtb hypoxia rep 1.8, Autofluor counter 9191, PrP UTR inh -10.3 and Mtb hypoxia rep growth 10.7.
CCCc1noc(-c2ccc(-c3ccccc3)cc2)n1 was read as Sa ugtP lethal 23.4, Sa RN4220 lethal 11.6, BJeLR viability -3.6, Mtb hypoxia rep 7.8, Autofluor counter 9084, PrP UTR inh -99.7 and Mtb hypoxia rep growth 12.8.
COc1ccc(-n2c(C)cc(C(=O)CSc3nn4c(=O)c(C(C)(C)C)nnc4s3)c2C)cc1 was read as Sa ugtP lethal -9.4, Sa RN4220 lethal 13.2, BJeLR viability 4.0, Mtb hypoxia rep -8.1, Autofluor counter 11189, PrP UTR inh -13.6 and Mtb hypoxia rep growth 1.7.
Screening C#CCOc1ccc(/C=N/NC(=O)c2cccnc2)cc1OCC returned BJeLR viability -3.8, Autofluor counter 4393 and PrP UTR inh -16.9.
Screening O=C(CN1C(=O)NC2(CCCCC2)C1=O)Oc1ccc2c(C(F)(F)F)cc(=O)oc2c1 returned BJeLR viability 8.3, Autofluor counter 4944 and PrP UTR inh -16.4.
Screening Cc1ncc([N+](=O)[O-])n1CC(=O)N/N=C/c1ccccc1F returned BJeLR viability 5.5, Autofluor counter 3260 and PrP UTR inh -18.1.

Retrieved by structure from the list above, two records:
For COc1ccc2c(c1)OC(c1cccc(C(F)(F)F)c1)C(OC(=O)NC1CCCc3ccccc31)C2=O (configuration not stated) the results were Sa ugtP lethal 2.1, Sa RN4220 lethal 6.5, Mtb hypoxia rep -1.9 and Mtb hypoxia rep growth 1.3.
Screening COC(=O)c1ccccc1NC(=S)NC(NC(=O)c1ccccc1[N+](=O)[O-])C(Cl)(Cl)Cl (configuration not stated) returned Sa ugtP lethal -47.5, Sa RN4220 lethal 17.6, BJeLR viability -3.8, Mtb hypoxia rep 2.5, Autofluor counter 3593, PrP UTR inh -16.3 and Mtb hypoxia rep growth 4.4.

(continued)
Screening CC1CN(c2nc3ccccc3cc2-c2ccccc2)CC(C)O1 (configuration not stated) returned Sa ugtP lethal 91.2*, Sa RN4220 lethal -6.6, BJeLR viability -5.1, Mtb hypoxia rep 13.5, Autofluor counter 2201, PrP UTR inh -25.6 and Mtb hypoxia rep growth -1.0.
Cc1cc(C)nc(N2CCC(C(=O)NCC3CCCCC3)CC2)n1 was read as Sa ugtP lethal 5.7, Sa RN4220 lethal -0.5, BJeLR viability 1.4, Mtb hypoxia rep 0.0, Autofluor counter 11462, PrP UTR inh -10.4 and Mtb hypoxia rep growth -1.5.
Screening O=C(Cn1nnc2ccccc21)OCC(=O)c1ccc(F)cc1 returned Sa ugtP lethal 2.5, Sa RN4220 lethal 1.2, BJeLR viability 1.9, Mtb hypoxia rep -0.6, PrP UTR inh -52.8 and Mtb hypoxia rep growth -3.0.
C/C=C\C=C/C(=O)Nc1cccc(C2=NOC3(C2)C[C@@H](C(N)=O)N(C(=O)CCCCC)C3)c1 (some centres not stated) was read as BJeLR viability -6.0, Autofluor counter 3950 and PrP UTR inh -15.0.
COc1ccc(CN2C(=NC(=O)c3ccccc3)SC3CS(=O)(=O)CC32)cc1 (configuration not stated) was read as Sa ugtP lethal 15.3, Sa RN4220 lethal 6.5, BJeLR viability 1.0, Mtb hypoxia rep 7.8, Autofluor counter 4209, PrP UTR inh -5.5 and Mtb hypoxia rep growth -0.4.
